Compound activity from PubChem BioAssay.
D2 potentiator: positive allosteric modulators of human D2 dopamine receptor | P14416 | DiscoveRx D2 beta-arrestin cells, luminescence, 90 min; 100% = 57 uM dopamine signal | potentiation, % (test concentration not listed) | hit rate 0.23% among 360,000 | AID 624464; active = potentiation of 50% or more; inconclusive = 30% to 50%; inactive = 30% or less;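 note: compound concentration not given in the record; tested on top of an EC20 dose of dopamine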
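PathHunter D2 cells, attached overnight at 37 deg C, received compound in DMSO plus dopamine at EC20 (50 nM final) for 90 min at 37 deg C. Beta-arrestin recruitment was read as luminescence after 1 h with detection reagent at ambient temperature.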
Six1-Eya2 inh: Six1/Eya2 interaction inhibition. Q15475+O00167. AlphaScreen GST-Six1/His-Eya2 binding, biochemical; active compounds read low; control for the full effect not named in the record. activity change, % (test concentration not listed). hit rate 0.56% among 360,000; in the data active = activity change below about -65%; inconclusive = about -30% to -65%; inactive = above about -30%; note: % is set by controls: 0 for no effect and ±100 for the full control effect
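Compounds are tested against tagged Six1 and Eya2 proteins bridged by glutathione donor and nickel acceptor beads; after a one-hour incubation at 37 °C without light, AlphaScreen emission is recorded.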
CtBP-E1A inh: inhibitors of CtBP/E1A interaction | hit rate 0.49% among 340,000 | activity change, % (no concentration beside the values) | AlphaScreen GST-E1A/His-CtBP binding, 1536-well; active compounds read low; control for the full effect not named in the record; in the data active means activity change below about -65%; inconclusive means about -30% to -65%; inactive means above about -30%; note: % is set by controls: 0 for no effect and ±100 for the full control effect
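Protein mix (5X: 125 nM each GST-E1A, His-CtBP) was incubated with pinned compound 2 h at 37 deg C in dark, in 50 mM Tris pH 8.0 buffer with 300 mM NaCl. Glutathione donor and nickel acceptor beads followed; AlphaScreen signal read after 1 h.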
D2 agonist: activates the human D2 dopamine receptor | DiscoveRx PathHunter D2 beta-arrestin, luminescence, 90 min; 100% = 57 uM dopamine signal | P14416 | activation, % (concentration not given with the values) | hit rate 0.084% among 360,000 | AID 624465; in the data active = activation above about 40%; inconclusive = about 15% to 40%; inactive = below about 15%; note: compound concentration not given in the record; the text of the record calls up to 30% inactive
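DiscoveRx PathHunter D2 beta-arrestin cells (2,100/well) attached overnight, then compound-stimulated 90 min at 37 C in HBSS/10 mM HEPES/0.1% Tween-20 buffer; beta-galactosidase complementation read by luminescence after 1 h at ambient temperature. Dopamine 57 uM final (EC100) as control.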
TRPV1 potentiator: human TRPV1 potentiation. hit rate 0.02% among 320,000. potentiation, % at 8.33 µM. TRPV1-expressing cells, Fluo-8 calcium influx, capsaicin EC20 potentiation; host cell line not named in the record; control for the full effect not named in the record. AID 540277. Q8NER1; active means potentiation above 80%; inconclusive means 30% to 80%; inactive means below 30%; note: 0% is about no effect
Target sequence (Q8NER1 whole entry, looked up): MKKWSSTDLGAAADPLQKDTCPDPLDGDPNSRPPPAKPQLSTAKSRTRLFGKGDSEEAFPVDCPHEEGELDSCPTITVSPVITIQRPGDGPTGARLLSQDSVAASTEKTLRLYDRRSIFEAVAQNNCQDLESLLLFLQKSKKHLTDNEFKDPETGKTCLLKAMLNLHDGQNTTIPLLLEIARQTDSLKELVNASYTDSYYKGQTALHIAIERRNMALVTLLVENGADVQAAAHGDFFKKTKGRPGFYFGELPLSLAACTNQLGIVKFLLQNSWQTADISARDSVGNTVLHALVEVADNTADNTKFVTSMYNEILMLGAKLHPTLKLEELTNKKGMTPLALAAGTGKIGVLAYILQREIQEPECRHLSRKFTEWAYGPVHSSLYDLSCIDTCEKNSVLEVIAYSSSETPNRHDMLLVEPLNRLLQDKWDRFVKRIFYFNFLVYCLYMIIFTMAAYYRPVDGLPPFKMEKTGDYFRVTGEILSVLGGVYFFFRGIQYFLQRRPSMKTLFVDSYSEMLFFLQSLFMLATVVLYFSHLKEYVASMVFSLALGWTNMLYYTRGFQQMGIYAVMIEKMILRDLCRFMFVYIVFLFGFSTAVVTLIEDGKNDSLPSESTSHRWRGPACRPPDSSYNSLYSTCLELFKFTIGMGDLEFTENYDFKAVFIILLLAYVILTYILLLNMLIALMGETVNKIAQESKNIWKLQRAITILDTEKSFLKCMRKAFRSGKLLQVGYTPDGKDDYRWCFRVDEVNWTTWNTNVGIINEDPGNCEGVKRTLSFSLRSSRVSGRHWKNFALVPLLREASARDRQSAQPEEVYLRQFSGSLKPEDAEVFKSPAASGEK
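Fluo-8 calcium influx in TRPV1-expressing cells, kinetic read (ex 480/em 520 nm). Compound added and read 3 min for agonist activity, followed by capsaicin at EC20 final and 2 min further read for enhancement.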
PINK1 expr mod: changes PINK1 expression; PINK1 immunofluorescence, high-content cytometry, 24 h; Potency, µM (highest dose often 76.6 µM), for inactives: at the highest dose activation (PINK1 increase), actives largely listed as activators; hit rate 0.2% among 410,000; AID 624263; active = well fitted activation curve with a large enough effect; inconclusive = small, poorly fitted or top-dose-only effect; inactive = flat fitted curve, though single readings scatter; cell line not stated here;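 note: potency is the fitted concentration of half-maximal effect; % of control where 0% means no effect; nearly all actives have a fitted effect of over 65% in size; a mitochondrial uncoupler was the plate control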
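Stable cell line treated 24 h with compounds at 5 concentrations (CCCP controls), then fixed and immunostained for PINK1 plus nuclear and cell stains; PINK1 immunofluorescence quantified by laser-scanning microplate cytometry.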
Sfp PPTase inh: blocks B. subtilis Sfp PPTase activity | hit rate 3.5% among 310,000 | AID 1490 | Potency, µM, inactives show max response, negative = inhibition, usual class: inhibitors | Biochemical Sfp PPTase activity, qHTS; active = well fitted inhibition curve with a large enough effect; inconclusive = small, poorly fitted or top-dose-only effect, or another doubt; inactive = no such curve, though single readings can be large or run the other way;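 note: the enzyme is Sfp with the accession as filed and its product quenches rhodamine fluorescence; potency is the fitted concentration of half-maximal effect; 0% = enzyme reaction without inhibitor and -100% = no enzyme wells; top concentration of the series not given in the record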
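Compounds were incubated with enzyme (final 15 nM) for 15 min at room temperature before substrate addition started the reaction. Fluorescence at 525 nm excitation, 598 nm emission was recorded immediately and after 30 minutes.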
* marks the source's active call; other numbers are inactive results; ? = inconclusive; . = no result given; [ ] = remark or other dose.

1) O=C(N/N=C/c1ccc[nH]1)c1ccccc1OCc1ccc(F)cc1
2) O=C(CSc1nnc(NC(=O)c2ccccc2F)s1)Nc1ccccc1F
3) O=C(CC1SC(N2CCCCC2)=NC1=O)Nc1ccc(C(=O)O)cc1 (stereo not given)
4) O=C(NCc1ccccc1Br)c1cccc2c1C(=O)c1ccc(-c3ccc(OC(F)(F)F)cc3)cc1S2(=O)=O
5) COc1cc(OC)cc(C(=O)Nc2nc3ccccc3[nH]2)c1

compound no.	1	2	3	4	5
D2 potentiator	-4	5	-13	-6	-7
Six1-Eya2 inh	6	-4	8	5	-4
CtBP-E1A inh	-17	7	.	4	-1
D2 agonist	-2.9	0.3	-3.7	-0.4	-4.9
TRPV1 potentiator	-26	-7	-3	.	-34
PINK1 expr mod	3.3%	2.3%	0.9%	?	3.4%
Sfp PPTase inh	15%	11%	.	.	?

6) CC1(C(=O)N2CCN(Cc3ccccc3Cl)CC2)CC1(Cl)Cl (stereo not given)
7) CC1=CC(C)(C)N=C(NC#N)N1
8) Clc1ccccc1Nc1nnc(-c2ccncc2)s1
9) O=C(Cc1ccccc1Cl)Nc1nc2ccccc2[nH]1
10) COc1ccc(CC(=O)OCc2cc3ccccc3[nH]c2=O)cc1

compound no.	6	7	8	9	10
D2 potentiator	-5	-1	-2	0	-10
Six1-Eya2 inh	-1	3	6	3	7
CtBP-E1A inh	.	4	6	9	-1
D2 agonist	-0.1	0.4	-3.6	1.2	1.2
TRPV1 potentiator	-7	9	-28	.	15
PINK1 expr mod	6.1%	8.3%[38.3 µM]	-0.7%	8.8%	-2.4%
Sfp PPTase inh	7%	20%	-3%	12%	7%

11) CN(CCc1ccccc1)C(CCc1ccccc1)C(=O)Nc1ccc2c(c1)OCCO2 (stereo not given)
12) CCc1nc2c(OCCc3cccc(OC)c3)cccn2c1N(C)C(=O)c1ccc(OC)cc1
13) N#Cc1cccc(NC(=O)c2cncn2-c2ccccc2)c1
14) CCCc1nc(SCC(=O)N2CCC(Cc3ccccc3)CC2)c2c(=O)n(C)c(=O)n(C)c2n1
15) O=C(C1=C[C@H](C2CC2)C[C@H](OCCCCO)O1)N1CCN(Cc2ccc3c(c2)OCO3)CC1

compound no.	11	12	13	14	15
D2 potentiator	-16	-24	-2	-11	-19
Six1-Eya2 inh	-5	-4	16	0	-2
CtBP-E1A inh	-10	?	3	2	-22
D2 agonist	-5.0	7.4	0.7	-2.9	1.0
TRPV1 potentiator	.	.	21	23	-12
PINK1 expr mod	1.3%	-0.3%	0.2%	2.5%	-1.4%
Sfp PPTase inh	.	.	17%	-28%	9%

16) c1ccc(-c2noc(COc3ccc4c(c3)OCO4)n2)cc1
17) CCCN1C2=C(C(=O)CCC2)C(c2ccc(O)c(Br)c2)C2=C1CCCC2=O
18) CC(=O)c1ccc(N/N=C2/CCCNC2=O)cc1
19) O=C1[C@@H]2Cc3c([nH]c4ccccc34)C(c3cccc(Br)c3)N2C(=O)CN1C1CCN(Cc2ccccc2)CC1 (stereo not given in full)
20) O=C(COc1c(Cl)cccc1Cl)Nc1ccccc1N1CCCC1

compound no.	16	17	18	19	20
D2 potentiator	-7	19	-4	-15	-16
Six1-Eya2 inh	-1	0	-8	-16	-14
CtBP-E1A inh	4	-1	0	-15	-8
D2 agonist	-3.2	3.5	-1.5	-2.4	-2.6
TRPV1 potentiator	-9	-6	3	2	2
PINK1 expr mod	13%	-1.2%	-0.4%	-2.5%	7.6%
Sfp PPTase inh	-6%	-1%	16%	0%	-4%

Part of the list above, with tabs.
item	SMILES	D2 potentiator	Six1-Eya2 inh	CtBP-E1A inh	D2 agonist	TRPV1 potentiator	PINK1 expr mod	Sfp PPTase inh
9	O=C(Cc1ccccc1Cl)Nc1nc2ccccc2[nH]1	0	3	9	1.2	.	8.8%	12%
10	COc1ccc(CC(=O)OCc2cc3ccccc3[nH]c2=O)cc1	-10	7	-1	1.2	15	-2.4%	7%
11	CN(CCc1ccccc1)C(CCc1ccccc1)C(=O)Nc1ccc2c(c1)OCCO2 (stereo not given)	-16	-5	-10	-5.0	.	1.3%	.
12	CCc1nc2c(OCCc3cccc(OC)c3)cccn2c1N(C)C(=O)c1ccc(OC)cc1	-24	-4	?	7.4	.	-0.3%	.
13	N#Cc1cccc(NC(=O)c2cncn2-c2ccccc2)c1	-2	16	3	0.7	21	0.2%	17%
14	CCCc1nc(SCC(=O)N2CCC(Cc3ccccc3)CC2)c2c(=O)n(C)c(=O)n(C)c2n1	-11	0	2	-2.9	23	2.5%	-28%
15	O=C(C1=C[C@H](C2CC2)C[C@H](OCCCCO)O1)N1CCN(Cc2ccc3c(c2)OCO3)CC1	-19	-2	-22	1.0	-12	-1.4%	9%
16	c1ccc(-c2noc(COc3ccc4c(c3)OCO4)n2)cc1	-7	-1	4	-3.2	-9	13%	-6%
17	CCCN1C2=C(C(=O)CCC2)C(c2ccc(O)c(Br)c2)C2=C1CCCC2=O	19	0	-1	3.5	-6	-1.2%	-1%
18	CC(=O)c1ccc(N/N=C2/CCCNC2=O)cc1	-4	-8	0	-1.5	3	-0.4%	16%
19	O=C1[C@@H]2Cc3c([nH]c4ccccc34)C(c3cccc(Br)c3)N2C(=O)CN1C1CCN(Cc2ccccc2)CC1 (stereo not given in full)	-15	-16	-15	-2.4	2	-2.5%	0%
20	O=C(COc1c(Cl)cccc1Cl)Nc1ccccc1N1CCCC1	-16	-14	-8	-2.6	2	7.6%	-4%

The results go on:
21) CC(OC(=O)CCc1ccccc1)C(=O)Nc1ccc(Cl)cn1 (stereo not given)
22) O=[N+]([O-])c1cc(S(=O)(=O)NCCN2CCOCC2)ccc1Cl
23) Cc1cccc(C)c1NC(=O)c1cccc2c1C(=O)N(C1CCCCC1)C2
24) Cc1nnc(SCC(=O)c2c(N)n(C)c(=O)n(C)c2=O)n1Cc1ccccc1
25) O=C1NC(c2cccnc2)C(C(=O)c2cccs2)C(O)(C(F)(F)F)N1 (stereo not given)

compound no.	21	22	23	24	25
D2 potentiator	-8	-10	-1	3	2
Six1-Eya2 inh	6	1	-6	11	-1
CtBP-E1A inh	-2	8	0	52	-2
D2 agonist	-3.4	-2.6	-0.6	-3.7	-1.8
TRPV1 potentiator	-27	11	-11	0	20
PINK1 expr mod	6.0%	4.9%	?	.	-2.5%
Sfp PPTase inh	.	1%	-17%	16%	7%

26) OC(CNCc1ccco1)Cn1c2ccccc2c2ccccc21 (stereo not given)
27) COc1ccc(OC)c(S(=O)(=O)NC(C)c2cnn(-c3ccccn3)c2C)c1 (stereo not given)
28) CCC(C)NC(=O)CSc1nc2cc(S(=O)(=O)N3CCOCC3)ccc2n1CC (stereo not given)
29) COc1ccc(NC(=O)N(C)C[C@H]2OCCCC[C@@H](C)Oc3ccc(N(C)C)cc3C(=O)N([C@H](C)CO)C[C@@H]2C)cc1
30) Cc1cc(C)nc(NS(=O)(=O)c2ccc(NC(=O)c3ccccc3Br)cc2)n1

compound no.	26	27	28	29	30
D2 potentiator	-8	-14	-19	4	-18
Six1-Eya2 inh	-7	26	3	-5	-6
CtBP-E1A inh	-3	2	-1	3	0
D2 agonist	-1.1	-4.9	-3.4	-3.1	-2.4
TRPV1 potentiator	-1	-33	4	.	.
PINK1 expr mod	1.2%	-0.3%	0.0%	1.6%	-1.0%
Sfp PPTase inh	7%	8%	.	.	.

31) Cc1nn(C(C)C(=O)NCCCN2CCCCC2C)c(=O)c2c1sc1ccccc12 (stereo not given)
32) Cc1nc(C)n(CC(C)C(=O)N2CCN(S(=O)(=O)c3ccc(Cl)cc3)CC2)n1 (stereo not given)
33) CC(C)(C)NC(=S)NCc1cccnc1
34) CC(C)COC(=O)N(C)C[C@H]1OCc2cnnn2CCCC(=O)N([C@H](C)CO)C[C@@H]1C
35) Cc1cccc2cc(C#N)c(SCc3nnc(-c4ccccc4[N+](=O)[O-])o3)nc12

compound no.	31	32	33	34	35
D2 potentiator	-9	0	2	-5	-13
Six1-Eya2 inh	4	-10	8	19	2
CtBP-E1A inh	.	0	9	0	3
D2 agonist	-1.9	2.5	-1.3	-1.9	-3.4
TRPV1 potentiator	4	2	.	.	-2
PINK1 expr mod	0.5%	3.7%	?	-1.2%	0.2%
Sfp PPTase inh	28%	22%	-7%	.	2%

36) CO/N=C/c1ccc(Oc2ccc(C)cc2)c([N+](=O)[O-])c1
37) Cc1ccc2[nH]c(=O)c(CNC(C)C)cc2c1
38) O=C(O)CC(NC(=O)C12CC3CC(CC(C3)C1)C2)c1ccc(F)cc1 (stereo not given)
39) C[C@@H]1CN([C@H](C)CO)C(=O)CCCn2cc(nn2)CO[C@H]1CN(C)C(=O)Nc1ccc2c(c1)OCO2
40) Cc1cc(O)c(-c2cc(C(=O)Nc3cccnc3)[nH]n2)cc1C

compound no.	36	37	38	39	40
D2 potentiator	-2	-11	-8	1	-6
Six1-Eya2 inh	-6	7	16	2	-1
CtBP-E1A inh	-3	0	3	3	-10
D2 agonist	3.9	-1.6	-2.3	-3.8	-0.2
TRPV1 potentiator	17	4	-6	.	?
PINK1 expr mod	2.4%	-1.2%	1.9%	1.7%	0.0%
Sfp PPTase inh	-10%	?	9%	.	12%

41) CCOc1cc2c(cc1OCC)C(c1ccccc1)N(c1ccccc1)C(=O)C2 (stereo not given)
42) CC(=O)c1ccc(NC(=O)c2ccc3nc(C)sc3c2)cc1
43) C=CCN1C(=O)c2ccc(C(=O)N3CCN(c4ccccc4OC)CC3)cc2C1=O
44) Cc1ccccc1S(=O)(=O)N1C[C@H]2[C@H]3C(=O)N(c4ccccc4)C(=O)[C@H]3CC(=O)[C@H]2[C@@H]1c1ccc(Cl)cc1
45) CC(=O)NCC(=O)NC(C(=O)Nc1ccc2c(c1)OCCO2)c1ccc(C)cc1 (stereo not given)
46) O=C(CCN1C(=O)/C(=C/c2ccccc2Cl)SC1=S)NC1CCS(=O)(=O)C1 (stereo not given)
47) Cc1nnc(C)n1/N=C/c1ccc(O)cc1
48) O=C(CSCc1ccc(Cl)cc1)Nc1ccccc1C(=O)N1CCOCC1

compound no.	41	42	43	44	45	46	47	48
D2 potentiator	-10	3	-7	-1	-2	-27	-6	-10
Six1-Eya2 inh	0	0	-10	-2	-1	-23	0	-2
CtBP-E1A inh	-5	.	4	1	3	-3	0	1
D2 agonist	-4.9	1.2	-6.3	-0.9	-3.6	-3.6	0.1	-0.6
TRPV1 potentiator	-18	4	6	.	3	14	-19	-3
PINK1 expr mod	-0.8%	1.0%	2.5%	1.6%	-0.9%	5.1%	1.4%	1.2%
Sfp PPTase inh	-1%	18%	.	.	22%	-2%	24%	10%
